Bioassay records as filed in PubChem.
Arbovirus inh – antivirals against arbovirus infection, primary screen, cell-based, full library, 10K replicate subset; arbovirus infection cell-based antiviral screen; inhibition, % at 10 µM; hit rate 0.37% among 200,000; AID 1251, 2008;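 active = inhibition from about 30%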;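 also: bluetongue infection of BSR cells; cell survival read as ATP light after 72 h; 0% = infected wells without compound and 100% = uninfected wells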
RecA splice inh – Mtb RecA intein splicing inhibitors, primary screen, biochemical, fluorescence, HTS; Protein RecA (Mycobacterium tuberculosis (strain ATCC 25618 / H37Rv)), P9WHJ3; cell-free RecA intein splicing; inhibition, %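 (about 9 µM by stock and volumes)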; hit rate 0.75% among 290,000; in the data active = inhibition above about 30%; inconclusive = no clear call, values can overlap the other calls;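 also: 0% = vehicle wells and 100% = reference inhibitor control wells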
Target sequence (P9WHJ3 whole entry, looked up, canonical isoform): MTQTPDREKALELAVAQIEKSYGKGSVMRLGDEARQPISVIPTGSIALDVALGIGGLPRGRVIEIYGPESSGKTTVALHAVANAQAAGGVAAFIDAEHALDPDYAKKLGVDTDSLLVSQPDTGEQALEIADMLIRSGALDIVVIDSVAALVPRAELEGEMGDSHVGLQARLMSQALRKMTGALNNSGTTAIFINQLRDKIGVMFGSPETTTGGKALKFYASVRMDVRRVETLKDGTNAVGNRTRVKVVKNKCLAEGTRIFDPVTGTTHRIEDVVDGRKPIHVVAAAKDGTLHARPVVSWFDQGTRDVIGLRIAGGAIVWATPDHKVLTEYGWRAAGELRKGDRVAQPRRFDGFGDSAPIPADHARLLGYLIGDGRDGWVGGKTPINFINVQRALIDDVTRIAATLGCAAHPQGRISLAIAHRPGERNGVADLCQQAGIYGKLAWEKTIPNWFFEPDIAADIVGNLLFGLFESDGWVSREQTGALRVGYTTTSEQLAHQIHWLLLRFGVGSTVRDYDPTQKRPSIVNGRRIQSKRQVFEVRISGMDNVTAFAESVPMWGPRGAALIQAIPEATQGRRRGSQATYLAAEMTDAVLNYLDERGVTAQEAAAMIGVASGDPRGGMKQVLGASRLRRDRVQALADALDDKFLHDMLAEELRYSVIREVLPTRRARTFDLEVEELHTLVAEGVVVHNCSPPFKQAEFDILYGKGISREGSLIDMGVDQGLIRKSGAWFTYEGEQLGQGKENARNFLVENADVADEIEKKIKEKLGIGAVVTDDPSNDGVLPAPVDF
Mtb bLac sens – beta-lactam sensitization of Mtb H37Rv, H37Rv | M. tuberculosis H37Rv growth with meropenem, percent inhibition; hits of this screen are not shown here | inhibition, % at 25 µM | hit rate 0.27% among 330,000 | AID 434955, 2010;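 active = about 74% or more and at least 40 points above the plate without the antibiotic, then above 30% in a dose series; inconclusive = first-round hits that could not be retested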;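 also: growth measured after seven days incubation then overnight dye step; 0% = bacteria only wells and 100% = bacteria with antibiotic; twin plates without the antibiotic show which effects depend on it; some results filed as inactive read as strong as hits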
Mtb H37Rv – M. tuberculosis H37Rv growth inhibitors, H37Rv strain (AID 1626) | M. tuberculosis H37Rv growth inhibition; higher % means a stronger effect | one-dose inhibition, % at 10 µM; IC50 in µM for titrated hits | hit rate 0.95% among 220,000;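 active = confirmed in a dose series; inconclusive = inhibition above 80% but not taken into the dose series; inactive = below 80% or under 30% at every dose of the series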;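 also: bacteria incubated seven days before Alamar blue readout; 0% = bacteria only wells and 100% = bacteria with antibiotic wells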
YopH PTP inh – YopH tyrosine phosphatase inhibitors, primary screen, biochemical, fluorescence Ex485/Em525 | inhibition, %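 (about 10 µM by stock and volumes)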 | hit rate 0.16% among 140,000 | AID 898, 2007;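 active = inhibition of 50% or more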;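 also: controls were vehicle for no effect and minimum signal wells for full effect; inactives centre near -20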
Arbovirus inh repeat – further read-out of Arbovirus inh, marked with its call; inhibition, %; measured here: 10K subset replicate screen; many hits read low in the repeat;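 first of two repeat runs on a subset; 0% = infected and 100% = uninfected wells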
Numbers without * were called inactive; ? = inconclusive; nt = no result given. Only part of the results is shown (hit frequency here may not be typical).

SMILES	Arbovirus inh	RecA splice inh	Mtb bLac sens	Mtb H37Rv	YopH PTP inh	others
O=C(OCc1cccc([N+](=O)[O-])c1)c1ccncc1	-1	1.3	-4	-4%	nt
CC(C)NC(=O)C1CCN(C2CCN(Cc3nc4ccccc4s3)CC2)CC1	0	-2.1	16	5%	nt
O=C(c1ccc2c(=O)n(Cc3ccccc3Cl)c(=S)[nH]c2c1)N1CCCC1	nt	-0.3	1	nt	nt
N=C1SC(CC(=O)Nc2ccc([N+](=O)[O-])cc2)C(=O)N1c1ccccc1 (centres undefined)	nt	-2.2	-1	-6%	nt
Cc1ccc(C(=O)N/C(=C/c2cccnc2)C(=O)NCc2ccco2)cc1	0	-2.7	6	1%	-24
Oc1ccccc1-c1nc2c3ccccc3c3ccccc3c2[nH]1	nt	2.3	16	32%	nt
COc1ccc(CNC(=O)COC(=O)c2ccc3c(c2)OCCO3)cc1	1	-0.9	-3	-12%	-48
O=C(O)CCCCCN1C(=O)C(O)=C(C(=O)/C=C/c2ccccc2)C1c1ccc2c(c1)OCO2 (centres undefined)	-1	-1.4	-5	2%	nt
Nc1nc(NCCOCCO)nc(Nc2cccc(F)c2)c1[N+](=O)[O-]	nt	-1.7	-2	nt	nt
CCOC(=O)C1=NN(c2ccc(OC)cc2)C(c2ccccc2)CC1=O (centres undefined)	6	3.5	-3	-4%	-88
O=c1c2ccccc2nc2n1C(CSc1ccc(Cl)cc1)CN2 (centres undefined)	6	-1.7	-5	-1%	-28
COc1ccc(O)c(-c2cc(-c3cccs3)[nH]n2)c1	2	1.0	25	5%	0
Oc1ccc(C2=CCNCC2)cc1O	nt	-4.4	-3	-7%	nt
O=C(c1ccc(COc2ccccc2[N+](=O)[O-])o1)N1CCCCC1	2	6.0	5	7%	-38
CCC(=O)Nc1cccc(NC(=O)c2cc3ccccc3o2)c1	0	-3.5	-2	nt	-17	Arbovirus inh repeat=-7
O=C(NC1CCCCC1)N1CCNCC1	nt	-2.5	-6	nt	nt
c1ccc(C2C3=C(Nc4ncnn42)c2ccccc2CCC3)cc1 (centres undefined)	3	4.7	-7	-7%	-48
COC(CNc1ncnc2c1cnn2C)OC	24	2.1	-6	0%	nt
Nc1nc(SCC(=O)N2CCN(S(=O)(=O)c3ccc(Cl)cc3)CC2)n[nH]1	2	1.7	3	-10%	nt
Cc1cc(C)c(OCC(=O)N2CCN(c3ncc(C(F)(F)F)cc3Cl)CC2)c(C)c1	nt	17	-13	nt	nt
COc1ccc2nc(-c3ccco3)c(-c3ccco3)nc2c1	-1	-92	0	-10%	-11
CC(CCc1ccccc1)NC(=O)COC(=O)c1cccc2ccccc12 (centres undefined)	-9	-0.9	5	-1%	-17
CCN(CC)c1ccc(/C=N/OCC(=O)N2CCCc3ccccc32)cc1	7	4.8	-7	1%	-10
CC1CCC(NC(=O)c2cc3c(s2)CCCC3)CC1 (centres undefined)	nt	0.0	99	nt	nt
COc1cc(CNc2ccc3[nH]c(=O)[nH]c3c2)ccc1OCc1ccc(C)cc1	nt	-3.9	-1	nt	nt
O=[N+]([O-])c1ccc(CSc2nnc(SCc3ccccc3)s2)cc1	8	2.5	9	31%	8
Cc1ccccc1C(=O)OC1OC(=O)C(Cl)=C1N1CCOCC1 (centres undefined)	-1	2.0	-1	-8%	-22
COc1ccc(S(=O)(=O)N2CCC(O)(c3ccc(Cl)cc3)CC2)cc1	-1	5.3	0	-4%	-49
CNC(=O)c1cnn(-c2nc(-c3ccc(OC)cc3)cs2)c1C(F)(F)F	nt	-2.6	0	nt	nt
CCCCOc1ccc(NC(=O)Nc2nnc(C)s2)cc1	nt	1.0	8	4%	nt

Four structures out of the list, ordered by heavy-atom count, low to high:
SMILES	Arbovirus inh	RecA splice inh	Mtb bLac sens	Mtb H37Rv	YopH PTP inh	others
CC1CCC(NC(=O)c2cc3c(s2)CCCC3)CC1 (centres undefined)	nt	0.0	99	nt	nt
O=[N+]([O-])c1ccc(CSc2nnc(SCc3ccccc3)s2)cc1	8	2.5	9	31%	8
CNC(=O)c1cnn(-c2nc(-c3ccc(OC)cc3)cs2)c1C(F)(F)F	nt	-2.6	0	nt	nt
Cc1cc(C)c(OCC(=O)N2CCN(c3ncc(C(F)(F)F)cc3Cl)CC2)c(C)c1	nt	17	-13	nt	nt

Next part
SMILES	Arbovirus inh	RecA splice inh	Mtb bLac sens	Mtb H37Rv	YopH PTP inh	others
O=C(Cn1nc(-c2cccc([N+](=O)[O-])c2)c2ccccc2c1=O)Nc1cccnc1	-6	-1.4	14	1%	-2
CC(C)c1ccc(/C=C/c2ccc(=O)n(C)n2)cc1	-17	6.1	60	35%	nt
CC(=O)N(C(C)=O)c1nc(-c2ccccc2)cn1/N=C/c1cccc([N+](=O)[O-])c1	nt	0.7	7	nt	nt
CCCCn1c(-c2ccc(Cl)cc2)nc2c(=O)n(C)c(=O)[nH]c21	11	nt	nt	3%	-43
O=C(CNCc1ccco1)Nc1ccc(N2CCCCCC2)cc1	-18	-3.1	7	-5%	nt
CC1(C)CC(=O)C(C(C2=C(O)CC(C)(C)CC2=O)c2cccs2)C(=O)C1 (centres undefined)	-4	0.2	9	nt	-24
C/C(=N\O)c1ccc(N2C(=O)C3CC=C(Cl)CC3C2=O)cc1 (centres undefined)	7	-0.4	0	2%	8
O=C1Nc2ccccc2C12OCCO2	6	1.1	5	2%	-40
CCc1cc(C(=O)OC)c(NC(=O)CCCC(=O)O)s1	9	0.9	-4	-4%	-34
COc1ccc(CNC(=O)C2CCCN(Cc3nc(-c4cccc(C)c4)oc3C)C2)cc1 (centres undefined)	-3	0.8	94	?	nt
CCc1ccc(-c2nc(CS(=O)CC(=O)NCc3ccccc3)c(C)o2)cc1 (centres undefined)	nt	1.1	-3	nt	nt
Cc1ccc(CS(=O)(=O)CCC(=O)NC2CC2)cc1	3	-0.7	-8	0%	-103
C/C(N)=C(/C#N)C(=O)CN1CCCCC1	8	-2.3	-3	3%	-33
O=C(CCCOc1ccccc1)N1CCN(C(=O)c2ccco2)CC1	5	-1.7	-3	1%	-28
COc1ccc(CCNC(=O)/C=C/c2ccc3ccccc3n2)cc1OC	nt	1.8	-1	nt	nt
O=C1Nc2ccccc2C(O)(C(=O)NCc2ccc3c(c2)OCO3)N1c1ccc(Cl)c(Cl)c1 (centres undefined)	3	1.5	-2	4%	-16
CN(CC(=O)Nc1cccnc1)S(=O)(=O)c1ccc(Br)cc1	nt	-1.0	-2	nt	nt
Cc1nn(C)c(C)c1CN(Cc1nc(-c2ccc(F)cc2F)oc1C)C1CC1	14	0.0	-3	-1%	nt
CCCC(=O)Nc1cccc(-c2nc3ccccc3o2)c1	-15	-0.6	-4	5%	1
C/C(=N\OCC(=O)Nc1cc(C)cc(C)c1)c1ccc2c(c1)OCCO2	-1	1.2	0	2%	-11
N#CC1=C(N)Oc2n[nH]c(-c3ccccn3)c2C1c1c(F)cccc1Cl (centres undefined)	4	1.8	24	nt	-20
Cc1cc(C(=O)Nc2nnc(-c3ccccc3)s2)no1	-1	-4.0	nt	2%	7
COC(=O)C1=C(C)NC(C)=C(C(=O)OC)C1c1ccc(-c2cc(Cl)ccc2Cl)o1	18	3.2	4	-2%	-15
O=[N+]([O-])c1ccc(C[n+]2ccccc2)cc1	nt	1.2	1	nt	nt
CC1C(=O)N2CCCc3cc(NC(=O)c4ccccc4C(F)(F)F)cc1c32 (centres undefined)	nt	4.2	-6	nt	nt
O=C(NCC(c1cccs1)N1CCOCC1)c1cn(-c2ccccc2)nc1-c1ccc(Cl)cc1 (centres undefined)	nt	0.9	-6	nt	nt
CCOC(=O)CN1N=C(/C=C/c2ccc(OCC)cc2)CCC1=O	3	-0.8	5	0%	nt
CC(=O)C1=C(O)C(=O)N(c2cc(C(C)(C)C)on2)C1c1ccc(C(C)C)cc1 (centres undefined)	0	2.2	-4	3%	-50
COc1ccc(C2=NS(=O)(=O)N(C)C(C(=O)N3CCCCC3)=C2)cc1OC	nt	-6.9	-6	nt	nt
Cc1cccc(NC(=O)C2CC(O)CN2C(=O)OCc2ccccc2)c1 (centres undefined)	-2	-2.6	-2	-4%	-42
CSc1nc2nc3c(cc2c(=O)n1-c1ccc(C)cc1)COC(C)(C)C3	nt	2.6	-2	0%	nt
O=C1/C(=C\c2ccccc2)C2OCC=C3CN4CCC56c7ccccc7N1C5C2C3CC46 (centres undefined)	nt	0.2	5	8%	nt
C=CCN(CC=C)CCCOc1ccc(Br)cc1Cl	1	-2.3	-17	9%	nt
CCCSc1nc2c(c(=O)n(C)c(=O)n2C)n1Cc1ccc(C)cc1	-2	0.0	27	1%	-40
O=C(COC(=O)c1ccc(O)cc1O)c1ccc(Cl)cc1	nt	1.0	4	nt	nt
Cn1c(=O)oc2cc(S(=O)(=O)N3CCCC(C(=O)N4CC=C(c5ccccc5)CC4)C3)ccc21 (centres undefined)	12	nt	nt	nt	-14	Arbovirus inh repeat=1
Cc1nc2cc(NC(=O)NC(C)(C)C)ccc2n1C	-2	1.2	-1	-6%	nt
COc1ccc(NS(=O)(=O)c2ccc(O)c(NC(=O)c3ccc(S(=O)(=O)N4CCCCCC4)cc3)c2)cc1	5	-0.4	-2	-7%	-13
CCn1c(SCC(=O)C(C)(C)C)nnc1-c1ccccn1	8	-1.1	0	-2%	-21
Cn1cccc1Cc1nnc(SCC(=O)N2CCc3ccccc32)n1CCc1ccccc1	-23	4.1	1	-2%	-19
CCS(=O)(=O)N1CCN(S(=O)(=O)c2ccccc2[N+](=O)[O-])CC1	16	-1.3	-13	-10%	nt
CCN(CC)S(=O)(=O)c1ccc(C)c(NC(=O)CNc2cccc(S(=O)(=O)N3CCOCC3)c2)c1	nt	1.0	-4	nt	nt
CCOC(=O)c1nnn(-c2ccccc2)c1C	-3	0.5	-20	0%	10
COCC(=O)N/N=C(\C)CC(=O)Nc1ccccc1C(N)=O	3	-2.4	-7	-2%	-24
COCCCNC(=S)N1CCN(Cc2ccc3c(c2)OCO3)CC1	-2	-3.1	5	-6%	nt
COc1ccc(CNC(=O)CCCn2nc(C)c([N+](=O)[O-])c2C)cc1OC	1	-0.4	-5	-3%	nt
COc1ccc(-c2noc(-c3ccccc3C(=O)Nc3cccnc3)n2)cc1OC	4	2.3	12	-1%	-29
O=[N+]([O-])c1ccc(N2CCCC2)c2ncccc12	-4	3.0	0	-1%	nt
CCNc1nc(-c2cc3ccccc3o2)cs1	1	2.0	-4	8%	-8
Cc1cc(=O)oc2cc(NC(=O)C3CCCC3)ccc12	2	-3.5	41	78%	nt
COc1ccc(C)cc1NC(=O)c1cc2ccccc2cc1OCC(=O)NCc1ccco1	-8	-5.2	6	2%	-9
Cc1ccc2[nH]c(CNC(=O)c3ccccc3F)cc2c1	nt	-14	2	nt	nt
COc1cccc(Nc2nnc(SCC(=O)N3CC(=O)Nc4ccccc43)s2)c1	nt	-15	-3	1%	nt
COc1cccc(NC(=O)CN(C)C(=O)CSCc2nc3scc(-c4cccs4)c3c(=O)[nH]2)c1	nt	-0.2	3	nt	nt
Cc1ccc(-n2c(SCC(=O)Nc3ccc4c5c(cccc35)CC4)nc(O)cc2=O)cc1	19	4.2	3	-5%	-23
Cc1cc(N2CCN(c3ccccc3)CC2)nc(N)n1	-22	2.4	-14	-2%	-30
COc1cccc(CNS(=O)(=O)c2cn(C)cn2)c1	-1	-5.7	-13	nt	-30
O=C(O)CC(NC(=O)Nc1ccccc1)c1ccc(OC2CCCC2)cc1 (centres undefined)	14	9.7	-1	0%	nt
CCOc1ccc(NC(=O)CSc2nc3ccccc3nc2N2CCOCC2)cc1	nt	-2.5	1	nt	nt
COc1cc(S(=O)(=O)N2CCCCC2)ccc1NC(=O)c1ccccc1Cl	-15	-0.6	5	1%	-8
The list goes on.
SMILES	Arbovirus inh	RecA splice inh	Mtb bLac sens	Mtb H37Rv	YopH PTP inh	others
Cc1ccc(C2(O)CN(c3ccccc3C)C3=[N+]2CCS3)cc1 (centres undefined)	-2	2.8	4	4%	-28
CCOc1cc(N2CCOCC2)c(OCC)cc1NC(=O)Cc1cccc2ccccc12	9	-1.2	3	17%	-5
O=C(COC(=O)c1ccc(S(=O)(=O)NCc2ccco2)cc1)NC1CCCCC1	8	nt	-5	15%	-14
COc1ccccc1NC(=O)C[n+]1ccccc1	1	1.5	-3	-5%	nt
Cn1c(SCC(=O)Nc2ccccc2F)nnc1-c1cccs1	nt	-2.7	-2	nt	nt

Grouped by structure: the compounds so far with a cyano group.
SMILES	Arbovirus inh	RecA splice inh	Mtb bLac sens	Mtb H37Rv	YopH PTP inh	others
C/C(N)=C(/C#N)C(=O)CN1CCCCC1	8	-2.3	-3	3%	-33
N#CC1=C(N)Oc2n[nH]c(-c3ccccn3)c2C1c1c(F)cccc1Cl (centres undefined)	4	1.8	24	nt	-20
